A647 autofl: compound fluoresces in the A647 spectral region | Compound fluorescence, A647 channel (570/671 nm), Tris buffer | max dye-equivalent concentration, M | 59,000 tested, under 10 active | AID 592; active means above 1 µM dye equivalent; inconclusive means 0.1 to 1 µM; inactive means 0.1 µM or less;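 note: values scaled relative to a standard on each plate; highest value over a series up to 38 µM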
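Compound fluorescence was measured in 100 mM Tris buffer, pH 8.0, after 15 min at room temperature, using 570 nm excitation and 671 nm emission filters. Signal was normalized to a per-plate Alexa 647 standard curve and expressed as dye-equivalent concentration at each compound concentration.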
TSHR ag: TSH receptor (human) agonism. P16473. Potency, µM (top dose mostly 57.1 µM), for inactives: at the top dose activation, most hits filed as activators. actives 0.48% (n = 73,000). AID 926. HEK293-CNG-TSHR cells (CNG channel as cAMP sensor), membrane potential dye, cAMP; active = well fitted activation curve of enough size with the parental cells flat; inconclusive = any curve in the parental cells; inactive = parental cells flat and receptor cells flat or falling; note: potency is the fitted concentration of half-maximal effect; % of control where 0% means no effect; weak receptor curves with flat parental cells got no call and are not listed
Target sequence (P16473 whole entry, looked up): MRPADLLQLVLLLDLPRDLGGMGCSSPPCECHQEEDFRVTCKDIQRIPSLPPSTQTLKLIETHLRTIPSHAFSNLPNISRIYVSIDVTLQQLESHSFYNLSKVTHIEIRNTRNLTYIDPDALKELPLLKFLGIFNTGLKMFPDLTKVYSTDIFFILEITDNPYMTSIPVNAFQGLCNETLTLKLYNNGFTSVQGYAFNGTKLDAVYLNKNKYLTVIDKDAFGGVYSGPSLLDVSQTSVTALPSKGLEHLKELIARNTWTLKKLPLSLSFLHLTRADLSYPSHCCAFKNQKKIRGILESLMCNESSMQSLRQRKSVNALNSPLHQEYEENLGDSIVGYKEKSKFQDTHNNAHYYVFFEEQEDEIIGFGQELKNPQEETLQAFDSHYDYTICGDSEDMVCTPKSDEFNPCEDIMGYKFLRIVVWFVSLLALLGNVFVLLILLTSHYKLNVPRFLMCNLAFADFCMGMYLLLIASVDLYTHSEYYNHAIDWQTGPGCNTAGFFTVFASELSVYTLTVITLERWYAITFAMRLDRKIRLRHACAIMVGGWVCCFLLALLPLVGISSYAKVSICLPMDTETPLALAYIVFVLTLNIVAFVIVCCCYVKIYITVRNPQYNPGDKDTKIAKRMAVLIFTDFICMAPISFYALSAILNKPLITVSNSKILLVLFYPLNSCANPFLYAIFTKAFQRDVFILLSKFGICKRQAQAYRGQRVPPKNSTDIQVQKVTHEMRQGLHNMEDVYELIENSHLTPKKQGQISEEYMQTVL
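HEK 293 cells stably expressing TSHR and a modified CNG channel, with CNG-only parental cells as counterscreen, were preloaded 60 min at room temperature with membrane potential dye containing 100 uM RO 20-1724. Compound exposure was 30 min, and depolarization was read as fluorescence at 590 nm.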
Resorufin autofl: compounds fluorescent in resorufin spectral region | max dye-equivalent concentration, M | actives 0.04% (n = 59,000) | Compound fluorescence, resorufin region 547/598 nm, buffer; active compounds read high | AID 588; active = above 10 nM dye equivalent; inconclusive = 1 to 10 nM; inactive = 1 nM or less; a few of its hits are not listed in these tables; note: highest value over a series up to 38 µM
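Dye-equivalent concentration values derive from comparing each well's 547/598 nm fluorescence against resorufin standards included on every plate. Incubation was 15 min at room temperature in 100 mM Tris, pH 8.0.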
A488 autofl: compound fluoresces in the A488 spectral region | compound autofluorescence, A488 spectral region, dye equivalency; active compounds read high | max dye equivalency, M | actives 0.1% (n = 59,000) | AID 591; active = above 10 nM dye equivalent; inconclusive = 1 to 10 nM; inactive = 1 nM or less; about half of its hits are not listed in these tables;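 note: highest value over a series up to 38 µM; compound alone in buffer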
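Compound autofluorescence was read in 100 mM Tris pH 8.0 after 15 min at room temperature, ex 480 nm/em 540 nm. Intensities were converted to A488 dye-equivalent concentration using an on-plate six-point A488 standard curve.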
AID923: qHTS Assay for Allosteric/Competitive Inhibitors of Caspase-1: Spectroscopic Profiling in AFC Spectral Region. compound fluorescence, AFC spectral region (405/520 nm); almost no hit is shown here. Potency, µM (titrated, usually from 57.5 µM), for inactives: top-dose fluorescence increase, hits mostly activators. actives 1.1% (n = 75,000). AID 923, 2007; active = well fitted activation curve with a large enough effect; inconclusive = small, poorly fitted or top-dose-only effect;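 note: potency is the fitted concentration of half-maximal effect; 0% is about no effect; scaled to a free AFC standard on each plate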
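Compound autofluorescence profiled at 405 nm ex/520 nm em during kinetic caspase 1 run (50 nM enzyme, 5 uM Ac-WEHD-AFC, HEPES pH 7.5, 10 mM DTT). Titration up to 57 uM; baseline from regression intercept, normalized to AFC standard curve.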
Numbers without * were called inactive; i = inactive; ? = inconclusive; . = not tested or not shown; [ ] = dose if it differs, or a comment.

SMILES	A647 autofl	TSHR ag	Resorufin autofl	A488 autofl	AID923
CCCN(c1nc(C)cc(OC)n1)S(=O)(=O)c1ccccc1	6.6e-09	8.5%	i	i	0.6%
CCN1CCN(c2ncc3c(n2)CC(c2ccc(OC)c(OC)c2)CC3=O)CC1 (stereo not drawn)	9e-09	.	i	i	1.0%
COc1ccc(-c2cc(=O)c3ccccc3s2)cc1	4.74e-08	?	i	i	0.8%
COc1ccccc1N(CC(=O)Nc1ccc2c(c1)OCO2)S(=O)(=O)c1ccccc1	.	?	.	.	1.4%
COc1cccc(C2=NOC(C(=O)NC(C)(C)C)C2)c1 (stereo not drawn)	1e-09	-4.2%	i	i	0.6%
CCOC(=O)N1CCN(C(=O)C2CC(c3cc(OC)ccc3OC)=NO2)CC1 (stereo not drawn)	2.9e-09	?	i	i	-0.1%
Cc1nc(Nc2ccccc2)[nH]c(=O)c1CCC(C)C	3.88e-08	3.2%	i	i	-1.5%
CCOc1ccc(N(CC)C(=O)COc2cc(=O)n(C)c3ccccc23)cc1	.	14.6%	.	.	4.1%
O=C(O)CCc1nn2c3ccccc3nc2n(-c2ccccc2)c1=O	3.34e-08	4.2%	i	i	1.4%
Cc1ccc(NC(=O)Cn2cnc3c(=O)n(C)c(=O)n(C)c32)c(C)c1	1e-09	0.2%	i	i	-1.4%
CC1=C(C(=O)Nc2ccc(C)cc2)C(c2ccc(C)o2)C2=C(CC(C)(C)CC2=O)N1 (stereo not drawn)	6.68e-08	3.8%	i	i	-0.3%
O=C(O)C1C2C=CC(C2)C1C(=O)NCCCn1ccnc1 (stereo not drawn)	1e-09	-6.6%	i	i	0.2%
Cc1cnc(CNc2ncncc2-c2ccoc2)cn1	3.33e-08	?	i	i	-1.8%
O=C(CCn1nc(-c2ccc(Cl)cc2)ccc1=O)N1CCN(c2ccccn2)CC1	4.53e-08	8.6%	i	i	-0.2%
CCC(Oc1ccc(C)c(C)c1)C(=O)O (stereo not drawn)	5.5e-09	10.9%	i	i	-2.8%
Cc1ccc(Oc2cc(C)nc(-c3ccccc3O)n2)cc1	1e-09	?	i	i	-0.4%
O=C(O)c1cn(-c2ccccc2)nc1-c1cccnc1	1e-09	-3.5%	i	i	-1.4%
COc1ccccc1NC(=O)CN1CCN(c2ccc(Cl)cc2)CC1	2.68e-08	?	i	i	1.5%
Cc1ccc(-c2nc3ccccc3o2)cc1NC(=O)c1ccc2c(c1)OCO2	1.81e-08	?	i	i	-0.8%
Cc1c(C(=O)OCCOC(C)C)[nH]c2c1C(=O)CC(C)(C)C2	.	13.6%	.	.	-1.7%
O=C(CCC(=O)N1CCCc2ccccc21)N1CCN(S(=O)(=O)c2ccccc2)CC1	1.7e-09	-0.1%	i	i	-2.2%
O=C(CCC1CCCC1)NCc1ccccn1	1e-09	0.9%	i	i	0.9%
Nc1ccc(N2CCCCC2)cc1N1CCCCC1	1e-09	-11.6%	i	i	-0.1%
Cc1cc(C(=O)Nc2ccc3c(c2)OCCO3)c(C)o1	1.9e-09	6.4%	i	i	-0.2%
O=C(O)c1ccccc1OCCOc1ccccc1	7.8e-09	8.0%	i	i	-1.0%
COCC(=O)N1CCC2(CC1)CN(Cc1nccs1)C2	2.76e-08	?	i	i	-1.4%
O=C(Cn1nnc(-c2ccc3c(c2)OCO3)n1)NCc1ccco1	1e-09	5.6%	i	i	-1.3%
Cc1ccc(-c2cc(C(F)(F)F)n3ncc(C(=O)N4CCN(C)CC4)c3n2)cc1	.	-2.5%[11.4 µM]	.	.	4.3%
O=C1NC(c2ccco2)Nc2ccccc21 (stereo not drawn)	1.1e-09	-5.6%	i	i	0.7%
CCOC(=O)c1c(NC(=O)CSc2nc(C)cc(C)c2C#N)sc(C(C)=O)c1C	3.6e-09	?	i	i	-0.1%
CNC(=O)NC(=O)CSc1cccc(C(F)(F)F)c1	3.06e-08	0.2%	i	i	0.5%
COc1ccc(Cc2nnnn2CC(=O)O)cc1	1e-09	14.4%	i	i	0.1%
COc1cccc(N(C(=O)c2ccn[nH]2)C2(C(=O)Nc3c(C)cccc3C)CCCCC2)c1	1e-09	?	i	i	1.2%
CCCn1c(C)nc2c(NC(C)CN(C)C)nc(C)nc21 (stereo not drawn)	.	3.2%	.	.	-0.6%
N#Cc1c(N)nc(SCC(=O)NCc2ccc3c(c2)OCO3)c(C#N)c1-c1cccs1	4.2e-09	.	i	i	.
O=C(CCN1Cc2ccccc2C1)c1ccc2c(c1)OCCO2	1e-09	14.8%	i	i	-0.3%
Cc1cc2ncn(/N=C/c3cc(Br)ccc3O)c2cc1C	6.1e-09	-5.8%	i	i	1.5%
COc1ccc(C2(O)CC3CCC(C2)N3c2nc(C)cc(C)c2C#N)cc1 (stereo not drawn)	1e-09	7.9%	i	i	1.0%
CCN(CC)CCN1C(=O)C(O)=C(C(C)=O)C1c1ccccc1 (stereo not drawn)	6e-09	.	i	i	-0.8%
Cc1[nH]nc2c1C(C(C)C)C(C#N)=C(N)O2 (stereo not drawn)	1e-09	-8.7%	i	i	3.0%
CCOC(=O)c1c(NC(=O)c2csc(C)c2)sc(C(C)=O)c1C	1e-09	9.0%	i	i	20.4%
Cc1ccccc1C(OCC(O)CN1CCCCC1CCO)c1ccccc1 (stereo not drawn)	1.9e-09	?	i	i	0.5%
Cn1c(Cn2nnc3ccccc32)nnc1SCC(=O)NCc1ccc2c(c1)OCO2	1.41e-08	-3.2%	i	i	-1.0%
CCOCCCNC(=O)C1CC(=O)N(C2CCCC2)C1 (stereo not drawn)	7.8e-09	-1.5%	i	i	-0.9%
CCOC(=O)CSc1nnc2n(Cc3ccccc3)c(=O)c3c4c(sc3n12)CCC4	2.6e-09	.	i	i	.
Cn1cnnc1SCC(=O)N(Cc1ccc2c(c1)OCO2)C1(C(=O)NC2CCCCC2)CCCC1	1e-09	6.6%	i	i	-0.3%
O=C(Nc1ncc2c(n1)CC(c1ccco1)CC2=O)c1ccccc1 (stereo not drawn)	1e-09	15.0%	i	i	-1.3%
CCC1Oc2ccccc2N(CC(=O)NCCN2C(C)CCCC2C)C1=O (stereo not drawn)	3.44e-08	-4.2%	i	i	-0.9%
COc1ccc(-n2c(CSc3nc(C)cc(C)n3)nnc2SCC(=O)Nc2nccs2)cc1	9.6e-09	2.6%	i	i	0.9%
Cc1ccc(-c2cc(C(=O)O)n[nH]2)o1	1.52e-08	-5.0%	i	i	1.3%
CCC(=O)N1CCN(CCN=CC2=C(O)CC(c3cccs3)CC2=O)CC1 (stereo not drawn)	.	7.2%[11.4 µM]	.	.	0.2%
O=C1CC(NCc2ccncc2)C(=O)N1c1ccc(Cl)cc1 (stereo not drawn)	1.6e-09	.	i	i	.
O=C(Nc1ccccc1N1CCN(C(=O)c2ccc(Cl)cc2)CC1)c1ccc2c(c1)OCO2	3.8e-09	29.1%	i	i	-0.8%
Cn1nc(-c2ccc(Cl)cc2)c2cc(C(=O)NC3CC3)sc21	.	3.0%	.	.	-3.1%
O=S(=O)(Nc1ccc(Cc2ccncc2)cc1)N1CCCC1	2.4e-08	-3.3%	i	i	0.6%
COC(=O)C1=C(C)OC(N)=C(C#N)C1c1ccc(OC)c(OC)c1OC (stereo not drawn)	3.3e-08	.	i	i	.
O=C(NC1CCCCC1)c1cc2nc(-c3ccco3)cc(C(F)(F)F)n2n1	1e-09	10.5%	i	i	10.8%
Cc1ccc(S(=O)(=O)Nc2ccccc2C(=O)c2ccc(C)c(C)c2)cc1	2.16e-08	4.0%[11.4 µM]	i	i	-1.5%[11.5 µM]
CCCCCNc1nc(N2CCCC2)c2c(c1C#N)CCN(C)C2	8.73e-08	.	i	i	.
Cc1cc(=O)[nH]c2c1c(=O)[nH]n2C1CC(C)N(C)CC1C (stereo not drawn)	2.63e-08	-0.7%	i	i	-0.3%

Compounds above that have an aryl thioether with sulfur outside any ring (seven):
SMILES	A647 autofl	TSHR ag	Resorufin autofl	A488 autofl	AID923
CCOC(=O)c1c(NC(=O)CSc2nc(C)cc(C)c2C#N)sc(C(C)=O)c1C	3.6e-09	?	i	i	-0.1%
CNC(=O)NC(=O)CSc1cccc(C(F)(F)F)c1	3.06e-08	0.2%	i	i	0.5%
N#Cc1c(N)nc(SCC(=O)NCc2ccc3c(c2)OCO3)c(C#N)c1-c1cccs1	4.2e-09	.	i	i	.
Cn1c(Cn2nnc3ccccc32)nnc1SCC(=O)NCc1ccc2c(c1)OCO2	1.41e-08	-3.2%	i	i	-1.0%
CCOC(=O)CSc1nnc2n(Cc3ccccc3)c(=O)c3c4c(sc3n12)CCC4	2.6e-09	.	i	i	.
Cn1cnnc1SCC(=O)N(Cc1ccc2c(c1)OCO2)C1(C(=O)NC2CCCCC2)CCCC1	1e-09	6.6%	i	i	-0.3%
COc1ccc(-n2c(CSc3nc(C)cc(C)n3)nnc2SCC(=O)Nc2nccs2)cc1	9.6e-09	2.6%	i	i	0.9%

(more compounds)
SMILES	A647 autofl	TSHR ag	Resorufin autofl	A488 autofl	AID923
Cc1ccc(S(=O)(=O)NCCC(=O)Nc2ccc3c(c2)OCO3)cc1	2.1e-09	-0.1%	i	i	-0.5%
CC(C)Oc1ccc(C2CC(=O)NC3=C2C(=O)CCC3)cc1 (stereo not drawn)	3.39e-08	2.1%[11.4 µM]	i	i	-0.5%
CCCCOc1nc2ccccc2nc1C(C#N)C(=O)NC1CCCCC1 (stereo not drawn)	4.85e-08	.	i	i	.
CCOCCCNC(=O)N[C@@H](Cc1ccccc1)C(=O)OC	3.31e-08	?	i	i	0.4%
C=CCn1c(C)nc2c(c1=O)c1nc3ccccc3nc1n2-c1ccc(C)cc1	.	6.8%	.	.	2.0%
O=C(Nc1ccccn1)Nc1cccs1	3.35e-08	3.0%	i	i	1.0%
CC1Cc2cc(/C(O)=C3/C(=O)C(=O)N(CCCn4ccnc4)C3c3ccco3)ccc2O1 (stereo not drawn)	2.44e-08	?	i	i	2.5%
O=C(CSCSCC(=O)Nc1ccc2c(c1)OCO2)Nc1ccc2c(c1)OCO2	3.36e-08	-7.5%	i	i	-2.2%
CC(=O)Nc1cccc(NC(=O)c2cc(C)on2)c1	1.57e-08	-3.6%	i	i	-3.8%
C/C=C/C1Oc2ccc(OC)cc2N2C(=O)C(C)C(OCOC)C12 (stereo not drawn)	.	-1.7%[11.4 µM]	.	.	14.3%[11.5 µM]
COc1ccc(-c2noc(CCC(=O)N3CCN(c4cccc(C(F)(F)F)c4)CC3)n2)cc1	2.4e-09	?	i	i	-0.2%
COc1cccc(CNC(=O)C2CCN(c3cnccn3)CC2)c1	9.7e-09	?	i	i	0.0%
CCCn1c(N2CCN(C(=O)N3CCCCC3)CC2)nc2ccccc21	1.97e-08	1.3%	i	i	1.0%
COC(=O)N1CCC2(CCCN(C(=O)Nc3ccccc3)C2)CC1	4.8e-09	3.2%	i	i	3.0%
CCCCCCN=CC1=C(O)C(C(=O)OC)C(C)(C)CC1=O (stereo not drawn)	.	1.2%	.	.	2.1%
O=C(c1ccc(F)cc1)C(CN1CCOCC1)c1ccccc1 (stereo not drawn)	4.08e-08	1.5%	i	i	-2.9%
Cc1onc(-c2ccccc2Cl)c1C(=O)N1CCN(C(=O)c2ccco2)CC1	.	3.0%	.	.	0.7%
Cc1noc(C)c1C(=O)OCC(=O)NC(=O)NC12CC3CC(CC(C3)C1)C2	1e-09	7.8%	i	i	0.3%
CCOC(=O)c1nn(-c2ccc3c(c2)OCO3)cc1O	1.82e-08	3.5%	i	i	0.2%
CS(=O)(=O)N1CCc2cc(C(=O)N3CCOCC3)ccc21	1.61e-08	1.8%	i	i	2.6%
CCN(CC)c1ccc(CNC23CN4CN(CN(C4)C2)C3)cc1	.	-4.4%[11.4 µM]	.	.	0.7%
CCOc1cc(N2CCOCC2)c(OCC)cc1NC(=O)CN1CCc2ccccc2C1	2.5e-08	-1.3%[11.4 µM]	i	i	1.2%

Some of the compounds tested (hit frequency here may not be typical).
